# YopH inh = YopH (Yersinia) phosphatase inhibition; fluorescence Ex485/Em525; inhibition, %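 (about 10 µM by stock and volumes)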; 140,000 compounds, 0.16% hits; AID 898;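 active means inhibition of 50% or more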;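 further: controls were vehicle for no effect and minimum signal wells for full effect; inactives centre near -20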
# RecA intein inh = blocks M. tuberculosis RecA intein splicing; P9WHJ3; cell-free RecA intein splicing, fluorescence; inhibition, %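 (about 9 µM by stock and volumes)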; 290,000 compounds, 0.75% hits; AID 2221; in the data active means inhibition above about 30%; inconclusive means no clear call, values can overlap the other calls;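 further: 0% = vehicle wells and 100% = reference inhibitor control wells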
# Target sequence (P9WHJ3 whole entry, looked up): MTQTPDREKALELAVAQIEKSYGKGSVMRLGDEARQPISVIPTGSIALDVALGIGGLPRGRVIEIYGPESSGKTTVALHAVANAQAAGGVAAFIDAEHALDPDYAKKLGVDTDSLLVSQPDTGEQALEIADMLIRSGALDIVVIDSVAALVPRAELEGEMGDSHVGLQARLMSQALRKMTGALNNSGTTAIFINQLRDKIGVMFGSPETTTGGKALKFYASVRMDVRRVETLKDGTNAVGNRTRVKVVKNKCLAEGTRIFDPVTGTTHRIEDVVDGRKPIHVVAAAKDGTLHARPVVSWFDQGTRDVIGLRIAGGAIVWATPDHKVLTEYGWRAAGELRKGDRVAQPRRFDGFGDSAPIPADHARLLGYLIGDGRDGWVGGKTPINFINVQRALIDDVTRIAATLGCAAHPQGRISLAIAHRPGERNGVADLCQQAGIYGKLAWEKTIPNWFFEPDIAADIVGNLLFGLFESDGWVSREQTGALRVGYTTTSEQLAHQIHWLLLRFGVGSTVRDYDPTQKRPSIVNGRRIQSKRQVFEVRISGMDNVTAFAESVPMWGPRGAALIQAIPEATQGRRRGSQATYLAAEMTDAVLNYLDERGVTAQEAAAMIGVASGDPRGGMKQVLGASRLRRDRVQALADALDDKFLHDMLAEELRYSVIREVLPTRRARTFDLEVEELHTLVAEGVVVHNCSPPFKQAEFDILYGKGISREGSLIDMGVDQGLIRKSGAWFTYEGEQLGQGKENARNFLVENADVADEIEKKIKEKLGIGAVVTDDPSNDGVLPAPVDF
# Mtb growth = M. tuberculosis H37Rv growth inhibitors, H37Rv strain (AID 1626); M. tuberculosis H37Rv growth inhibition; higher % means a stronger effect; inhibition, % at 10 µM; hits with a dose series show IC50 in µM; 220,000 compounds, 0.95% hits;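 active means confirmed in a dose series; inconclusive means inhibition above 80% but not taken into the dose series; inactive means below 80% or under 30% at every dose of the series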;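 further: bacteria incubated seven days before Alamar blue readout; 0% = bacteria only wells and 100% = bacteria with antibiotic wells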
# Arbovirus inh = antivirals against arbovirus infection | arbovirus infection cell-based antiviral screen | inhibition, % at 10 µM | 200,000 compounds, 0.37% hits;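 active means inhibition from about 30%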;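 further: bluetongue infection of BSR cells; cell survival read as ATP light after 72 h; 0% = infected wells without compound and 100% = uninfected wells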
# Mtb betalactam = beta-lactam sensitization of Mtb H37Rv; M. tuberculosis H37Rv growth with meropenem, percent inhibition; hits of this screen are not shown here; inhibition, % at 25 µM; 330,000 compounds, 0.27% hits; AID 434955;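 active means about 74% or more and at least 40 points above the plate without the antibiotic, then above 30% in a dose series; inconclusive means first-round hits that could not be retested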;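 further: growth measured after seven days incubation then overnight dye step; 0% = bacteria only wells and 100% = bacteria with antibiotic; twin plates without the antibiotic show which effects depend on it; some results filed as inactive read as strong as hits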
# The depositor's hits bear a star; ? = inconclusive; . = not tested or not shown. These rows are one share of the data; the hit share may differ from the screen's.
item	structure	YopH inh	RecA intein inh	Mtb growth	Arbovirus inh	Mtb betalactam
1	Cc1ccc(C(=O)c2c3ccc(C(F)(F)F)cc3[n+]([O-])n2CCCC(N)=O)cc1	.	-1.3	.	.	-2
2	CSc1ccc(-c2nnn(CC(=O)NCc3ccccc3)n2)cc1	-18	0.6	59%	-16	.
3	Cc1cc(C)n(Cc2nc3ccccc3n2C)n1	-13	-2.3	-10%	0	-8
4	CCCCN1C(=S)NC[C@@H]1c1ccccc1	.	0.2	-7%	3	-6
5	CC(C)CN(CC(C)C)S(=O)(=O)N1CCC(C(=O)NCCc2ccc(Cl)cc2)CC1	-36	1.1	2%	-8	-3
6	Cc1cccc(NC2=NC(=S)N(c3ccc(C(=O)O)cc3)C23CCCCC3)c1	10	0.1	.	-1	2
7	COc1ccc(COC(=O)N/C=C/c2ccco2)cc1	.	1.2	1%	-2	5
8	CCOC(=O)CN(C(=O)CSc1nnc(-c2cccc(OC)c2)o1)c1ccc(F)cc1	4	6.4	2%	2	0
9	Cc1ccc(SCC(=O)Nc2ccc(S(=O)(=O)Nc3ncccn3)cc2)cc1	.	5.4	21%	2	-2
10	COc1ccc(NC(=O)C/C(C)=N/NC(=O)C(=O)NC(C)C)c(OC)c1	.	1.0	-4%	14	-9
11	CCc1ccc(N2CC(C(=O)Nc3ccc(S(=O)(=O)NCC4CCCO4)cc3)CC2=O)cc1 (stereo unspecified)	.	-1.7	.	.	9
12	CCCCN(C/C=C/c1ccccc1OC)Cc1ccccc1	.	2.6	.	.	6
13	CCOC(=O)Cn1nnc(-c2ccccc2)n1	0	-1.9	-12%	3	-11
14	COC(=O)CSc1nc(N)c(C#N)c(CC(C)C)c1C#N	-25	-1.2	2.9µM*	1	99
15	CCNC(=O)C(Sc1ccccc1)c1ccccc1 (stereo unspecified)	-30	-5.1	3%	-4	-8
16	CCN(CC(=O)Nc1c(F)cccc1F)C(=O)CCN1C(=O)c2cccc([N+](=O)[O-])c2C1=O	.	-15	.	.	-8
17	COC(=O)N1C(=O)[C@@](CC(C)C)(c2ccccc2)N1C(=O)OC	.	1.6	.	.	50
18	COc1cc(C)ccc1OCc1cc(C(=O)NCCN2CCCC(O)C2)no1 (stereo unspecified)	.	-0.2	.	.	1
19	CCOC(=O)C1=C(C)N=c2s/c(=C/c3ccc(OCC(=O)O)c(OC)c3)c(=O)n2C1c1ccc(Cl)cc1 (stereo unspecified)	.	-13	.	.	5
20	COc1cc(C(=O)NCCOc2ccc(F)cc2)c(Br)c(OC)c1OC	.	-1.7	1%	0	0
21	Cc1cc2c(cc1S(=O)(=O)N1CCN(c3ccccc3F)CC1)OCC(=O)N2	.	0.7	.	.	3
22	Cc1cc2ccccc2c(=O)n1CC(=O)NC1CCCCCC1	10	-3.6	-11%	-2	-10
23	CC1=CC(C)(C)N(S(=O)(=O)c2ccc(C)cc2)c2ccc(C)cc21	12	15	-5%	-1	-2
24	Cc1ccc(S(=O)(=O)Nc2cccc(NC(=O)CN3CCCCC3)c2)cc1	-7	4.0	-4%	7	-3
25	COc1ccc(S(=O)(=O)N2CCN(C(=S)NCCc3ccccc3)CC2)cc1	.	2.9	.	.	9
26	Cc1cc2occ(CC(=O)NNC(=O)c3ccccc3F)c2cc1C	.	3.5	.	.	-11
27	COC(=O)c1noc(-c2ccc(OC)cc2)n1	-2	-0.9	3%	9	12
28	N#Cc1ccc(C(=O)N2CCN(c3ncccn3)CC2)cc1	.	-2.3	.	.	3
29	O=C1CC(NCC2CCCO2)C(=O)N1c1ccc(Cl)cc1 (stereo unspecified)	.	0.3	3%	1	7
30	COc1cccc(-c2nc(-c3ccc(C(=O)O)cc3)no2)c1	.	-0.3	-13%	.	-5
31	Cc1cc(N2CCN(C)CC2)nc2ccc(NC(=S)N3CCN(c4ccc(F)cc4)CC3)cc12	.	-0.4	3%	-15	32
32	O=C(NC1CCSc2ccccc21)c1cc([N+](=O)[O-])ccc1N1CCOCC1 (stereo unspecified)	.	1.6	.	.	1
33	O=C(COC(=O)CNC(=O)c1ccco1)NCCN1C(=O)CSC1=O	-55	.	-2%	2	-6
34	Cc1cccc(NC(=O)CSc2nnc(-c3n[nH]c4ccccc34)o2)c1	-26	-1.3	8%	0	3
35	Cc1ccnc(NS(=O)(=O)c2ccc(NC(=O)C3CCCNC3=O)cc2)n1 (stereo unspecified)	-25	-2.5	-16%	3	-1
36	CC1CCN(CC(=O)n2c3c(c4ccccc42)CCCC3)CC1	10	-1.6	-9%	12	4
37	COc1ccc(S(=O)(=O)NCC(c2ccc3c(c2)OCO3)N2CCN(c3ccccc3)CC2)cc1 (stereo unspecified)	.	0.8	.	.	1
38	COC(=O)c1sc2ccccc2c1NC(=O)c1cccs1	-30	1.4	0%	-4	95
39	NC(=O)CC(NC(=O)c1cccc(Br)c1)c1ccc(NCCN2CCOCC2)c([N+](=O)[O-])c1 (stereo unspecified)	.	0.9	-7%	.	.
40	CC(C)Cc1ccc(CN2CCCC(NC(=O)CCN3CCCCC3=O)C2)cc1 (stereo unspecified)	.	1.0	.	.	-2
41	CCN(CC(=O)NC1CCS(=O)(=O)C1)S(=O)(=O)c1cccc(C(C)=O)c1 (stereo unspecified)	.	-1.6	5%	8	15
42	O=C(N1CCN(Cc2ccccc2)CC1)C12CC3CC(CC(C3)C1)C2	-26	2.7	3%	-9	3
43	C=CCn1c(/N=C/c2ccc(N(C)C)cc2)nc2ccccc21	-6	-1.5	-4%	1	-5
44	O=C(O)c1cccc(NC(=O)C2C3C=CC(C3)C2C(=O)O)c1 (stereo unspecified)	-1	1.1	-15%	-4	-16
45	Cc1nc(CS(=O)(=O)c2ccccc2)cc(Sc2ccc(Cl)cc2)n1	-7	0.5	8%	-3	1
46	Cc1nnc(SCc2ccc([N+](=O)[O-])cc2)o1	.	-0.1	4%	-1	2
47	Cc1cccc(NC(=O)CN(CCc2ccccc2)S(C)(=O)=O)c1	.	-0.1	.	.	0
48	O=C(NCc1ccccn1)C1C2C=CC(C2)C1C(=O)Nc1ccc(F)cc1 (stereo unspecified)	7	-0.2	-10%	10	0
49	CCOC(=O)COc1ccc(/C=C/[N+](=O)[O-])c(OCC(=O)OCC)c1	-24	-0.4	?	-22	100
50	CCOC(=O)COc1cnc2ccccc2n1	.	2.4	4%	3	-4
51	Cc1c(NC(=O)C(C)OC(=O)c2ccc([N+](=O)[O-])s2)c(=O)n(-c2ccccc2)n1C (stereo unspecified)	.	.	11%	10	0
52	CC(=O)c1ccc(NC(=O)CSc2nnc(-c3ccco3)c(-c3ccco3)n2)cc1	.	9.5	-5%	-13	0
53	CC(C)(CC(=O)N1CCN(c2ccc(Cl)cc2)CC1)CC1=NS(=O)(=O)c2ccccc2N1	-33	1.4	.	15	2
54	CCCN1C(=O)SC(CC(=O)Nc2ccccc2)C1=O (stereo unspecified)	-37	0.9	-13%	8	-10
55	Cc1cc(=O)oc2c(C)c(OC(C)C(=O)NCC(O)c3ccccc3)ccc12 (stereo unspecified)	.	-1.3	.	.	2
56	Cc1cccc(NC(=O)c2ccccc2NC(=O)CCC(=O)O)c1	-11	1.4	4%	4	2
57	COc1ccccc1C(=O)Nc1ccnn1C1CCN(C(C)CSC)CC1 (stereo unspecified)	.	0.3	.	.	-8
58	CCCCC(CC)COCCCN=Cc1c(O)[nH]c(=S)[nH]c1=O (stereo unspecified)	.	-1.2	5%	.	-3
59	CC(C)=CCOc1ccc2ccc(=O)oc2c1	.	0.2	7%	-1	-6
60	O=C(NCc1ccc(Cl)cc1)c1cc(-c2ccco2)on1	-11	3.1	.	2	-4

# Values by screen from above.
# Nos. 47–55 in Mtb betalactam read 0, 0, 100, -4, 0, 0, 2, -10, 2

# Continuation.
item	structure	YopH inh	RecA intein inh	Mtb growth	Arbovirus inh	Mtb betalactam
61	CCOC(=O)c1c(NC(=O)/C=C/c2ccc(C)o2)sc(C)c1C	-23	-1.2	-5%	-3	14
62	O=C(CCCc1ccccc1)NCc1ccccc1	.	5.6	2%	-8	6
63	O=[N+]([O-])c1ccc2nc(NS(=O)(=O)c3ccc(Cl)cc3)sc2c1	.	2.2	.	.	-11
64	CC1(C)CC(C(CC(=O)Nc2nccs2)c2ccccc2)CCO1 (stereo unspecified)	-32	0.7	-3%	-6	0
65	Cc1ccccc1OCC(O)CN(Cc1ccccc1O)C1CCCCC1 (stereo unspecified)	.	0.6	26%	-26	0
66	Cc1ccccc1OCc1nc2ccccc2[nH]1	.	1.8	0%	-9	1
67	COc1ccc(CNC(=O)c2oc3ccc(S(=O)(=O)N4CCOCC4)cc3c2C)cc1	.	0.1	.	.	1
68	Cc1ccnc2nc(C(=O)OCC(=O)Nc3ccc4c(c3)OC(F)(F)O4)nn12	-11	-1.6	-7%	3	3
69	Cc1ccc(-c2nc3cccnc3o2)cc1NC(=O)COc1ccc(C(C)(C)C)cc1	-11	2.8	26%	1	99
70	CCOC(=O)C1=C(C)N=c2s/c(=C3\C(=O)Nc4ccccc43)c(=O)n2C1c1ccc2c(c1)OCO2 (stereo unspecified)	0	-5.8	-7%	16	13
71	CCOc1ccc2nc(-c3cc(NC(C)=O)ccc3O)sc2c1	.	-48	-2%	7	4
72	COC(=O)C1=C(C)N(C2CCCCC2)C(=O)C1	-5	-1.8	-11%	-2	-2
73	O=C(CCCOc1ccc(Cl)cc1)Nc1nncs1	-17	.	-1%	-1	2
74	CN1C2CCC1/C(=C\c1ccccc1F)C(=O)/C2=C/c1ccccc1F	-22	5.8	3%	8	6
75	CCC1=C(OC(=O)N(CC)CC)N2C(=O)OC(=NCC3CC3)[C@]2(Cc2ccccc2)[C@H]2C1=CC[C@H]1C(=O)NC(=O)[C@H]12	.	-2.0	-13%	.	-7
76	CCNC(=S)N1CCN(Cc2ccccc2)CC1	.	-3.0	-3%	3	-7
77	CCOC(=O)Cc1c(C)[nH]c(=S)[nH]c1=O	-33	-1.7	4%	7	-11
78	CS(=O)(=O)N1CCC(C(=O)Nc2ccc(Oc3ccccc3)cc2)CC1	-21	-0.4	3%	-4	-6
79	CC1CCN(S(=O)(=O)N2CCC(C(=O)NCc3cccnc3)CC2)CC1	.	-13	2%	.	4
80	Cc1nnc(SCC(=O)NCc2ccccc2Cl)n(N)c1=O	-33	-2.5	-6%	-13	-5
81	COc1ccc(NC(=O)CN2CCCN(S(=O)(=O)c3ccc(F)cc3)CC2)cc1	-27	2.8	-2%	0	-2
82	Nc1nc(CN2CCN(c3ccccc3F)CC2)nc(Nc2ccc3c(c2)OCCO3)n1	16	1.5	12%	-15	88
83	O=C(COc1ccccc1Cl)Nc1ccc(S(=O)(=O)Nc2ccccn2)cc1	.	1.7	.	.	2
84	CCCOc1ccc(N2C(=O)CC(NCCc3ccc(S(N)(=O)=O)cc3)C2=O)cc1 (stereo unspecified)	10	-2.6	-13%	0	-10
85	COc1ccc(C(=O)NCS(=O)(=O)c2ccc(C)cc2)cc1	-11	-1.3	-4%	11	-2
86	CCCCn1cnc2c(c1=O)c1nc3ccccc3nc1n2Cc1ccc2c(c1)OCO2	.	-2.1	0%	.	-11
87	COc1ccc(Cl)cc1NC(=O)C1CCCN(S(C)(=O)=O)C1 (stereo unspecified)	.	2.6	.	.	4
88	CCN(CC)C(=O)c1ccc(CS(=O)(=O)Cc2ccccc2)cc1	.	0.6	.	.	2
89	CNC(=O)NC(=O)COC(=O)c1ccc(-n2c(C)ccc2C)cc1	-23	12	20%	-2	7
90	C=CCNCCOCCOc1ccc(C)cc1[N+](=O)[O-]	-17	0.6	-13%	0	2
91	NC(=O)C[n+]1ccc(/C=N/O)cc1	.	-0.3	-4%	-7	1
92	Cc1cccc(NC(=O)CSc2cccc3cccnc23)c1	.	-2.7	.	.	0
93	COc1ccc(S(=O)(=O)Nc2nc3ccccc3s2)cc1	-20	0.5	-6%	5	-4

# Reformatted with values under each structure: part of the list above
# Values run as follows: YopH inh, RecA intein inh, Mtb growth, Arbovirus inh, Mtb betalactam
78	CS(=O)(=O)N1CCC(C(=O)Nc2ccc(Oc3ccccc3)cc2)CC1
→ -21, -0.4, 3%, -4, -6
79	CC1CCN(S(=O)(=O)N2CCC(C(=O)NCc3cccnc3)CC2)CC1
→ ., -13, 2%, ., 4

# Complete entries, looked up by structure. Order of values: YopH inh, RecA intein inh, Mtb growth, Arbovirus inh, Mtb betalactam
# `O=C(COc1ccccc1Cl)Nc1ccc(S(=O)(=O)Nc2ccccn2)cc1` in the list: ., 1.7, ., ., 2
# `C=CCNCCOCCOc1ccc(C)cc1[N+](=O)[O-]` in the list: -17, 0.6, -13%, 0, 2
# `CCOC(=O)C1=C(C)N=c2s/c(=C3\C(=O)Nc4ccccc43)c(=O)n2C1c1ccc2c(c1)OCO2` (stereo unspecified) in the list: 0, -5.8, -7%, 16, 13
# `COc1ccc(NC(=O)CN2CCCN(S(=O)(=O)c3ccc(F)cc3)CC2)cc1` in the list: -27, 2.8, -2%, 0, -2
# `COc1ccc(CNC(=O)c2oc3ccc(S(=O)(=O)N4CCOCC4)cc3c2C)cc1` in the list: ., 0.1, ., ., 1
